Source: PubChem BioAssay
MLL AF4-AF9 inh: inhibitors of AF4 peptide binding to AF9, primary screen, biochemical, AlphaScreen, biotin-AF4 peptide, FLAG-AF9, single point. Protein AF-9 (Homo sapiens), P42568. inhibition, % at 10 µM. 0.47% of 350,000 active. AID 651704, 2012;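 active means every replicate reaching a set inhibition limit, whatever the replicate mean, cut at about 25% in these data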;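 further: 0% = plate neutral control median and 100% = total signal loss; the record names both 10 and 1 µM as test concentration; the first replicate is given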
Target sequence (P42568 whole entry, looked up): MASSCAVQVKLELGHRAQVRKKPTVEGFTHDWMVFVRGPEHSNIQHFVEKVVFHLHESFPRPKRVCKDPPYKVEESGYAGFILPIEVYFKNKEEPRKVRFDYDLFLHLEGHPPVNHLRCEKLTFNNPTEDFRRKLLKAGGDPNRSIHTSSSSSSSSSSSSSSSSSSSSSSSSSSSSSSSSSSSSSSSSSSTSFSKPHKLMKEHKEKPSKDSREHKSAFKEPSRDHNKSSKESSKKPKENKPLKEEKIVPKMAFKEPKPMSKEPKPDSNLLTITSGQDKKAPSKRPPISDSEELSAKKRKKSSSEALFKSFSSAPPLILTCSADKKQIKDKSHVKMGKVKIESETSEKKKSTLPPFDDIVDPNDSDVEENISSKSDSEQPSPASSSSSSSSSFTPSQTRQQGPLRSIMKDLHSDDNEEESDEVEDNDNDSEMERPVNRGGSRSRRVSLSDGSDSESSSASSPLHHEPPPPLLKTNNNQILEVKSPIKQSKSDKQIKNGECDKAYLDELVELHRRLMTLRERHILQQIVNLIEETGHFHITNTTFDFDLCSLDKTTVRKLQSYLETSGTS
FGF22 binding: binders of human FGF22 protein, primary screen, FGF22 synaptogenesis inhibitor project, biophysical, thermal shift, single point. calls only at 9.99 µM. 1.5% of 340,000 active. recombinant FGF22 thermal shift, SYPRO orange fluorescence; percent of sucrose octasulfate shift, DMSO zero. Fibroblast growth factor 22 (Homo sapiens), Q9HCT0;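 active means melting point raised past a set limit in the mean and every replicate; three in four hits are not shown here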
Target sequence (Q9HCT0 whole entry, looked up): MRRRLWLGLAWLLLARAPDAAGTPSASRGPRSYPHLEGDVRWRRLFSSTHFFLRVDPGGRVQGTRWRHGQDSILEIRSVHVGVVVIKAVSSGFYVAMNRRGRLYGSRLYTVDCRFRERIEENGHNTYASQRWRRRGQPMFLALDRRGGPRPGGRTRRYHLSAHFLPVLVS
The depositor's hits bear a star; i = inactive; . = no result given; + = active, no number; & = joins results of further samples. The list is partial; the hit share may differ from the screen's.

Structure	MLL AF4-AF9 inh	FGF22 binding
CC(C)CC#Cc1cnc2c(c1)C(=O)N([C@H](C)CO)C[C@@H](C)[C@@H](CN(C)C(=O)c1ccccc1F)O2	-4.2	i
C[C@H]1CCCCO[C@H](CN(C)C(=O)c2ccncc2)[C@@H](C)CN([C@@H](C)CO)C(=O)c2cc(NS(C)(=O)=O)ccc2O1	-3.5	i
CCCCS(=O)(=O)N1CCCc2nc(CC)c(CC)cc21	-1.2	.
C[C@@H]1CCCCO[C@H](CN(C)C(=O)Nc2cccc3ccccc23)[C@@H](C)CN([C@H](C)CO)C(=O)c2cc(NC(=O)Nc3ccc(F)cc3)ccc2O1	-1.8	i
CCCNC(=O)N(C)C[C@@H]1Oc2ncc(C3=CCCCC3)cc2C(=O)N([C@H](C)CO)C[C@H]1C	-11	i
C[C@@H]1CN([C@H](C)CO)S(=O)(=O)c2ccc(C#Cc3ccc(F)cc3)cc2O[C@H]1CN(C)S(=O)(=O)c1cn(C)cn1	3.5	i
O=C(C[C@H]1C=C[C@@H](NS(=O)(=O)c2ccccc2)[C@@H](CO)O1)NCc1ccccc1F	-5.3	i
C[C@@H](O)C#Cc1cnc2c(c1)C(=O)N([C@@H](C)CO)C[C@H](C)[C@@H](CN(C)Cc1cncnc1)O2	-2.3	i
O=C(C1CCC1)N1C[C@@H]2[C@H](c3ccccc31)[C@H](CO)N2S(=O)(=O)c1ccccc1	-3.3	i
CO[C@@H]1CN(C)C(=O)c2cc(NC(=O)C3CC3)ccc2OC[C@@H](C)N(Cc2cncnc2)C[C@H]1C	-0.9	i
COCC(=O)N1CCC2(CC1)CN(C(=O)c1ccccn1)[C@@H](CO)c1c2c2ccc(OC)cc2n1C	-0.3	i
Cc1noc(C)c1NC(=O)N[C@@H]1CC[C@H](CCNC(=O)C2CCCCC2)O[C@@H]1CO	-0.8	i
C[C@H](CO)N1C[C@H](C)[C@H](CN(C)Cc2ccc3c(c2)OCO3)OCc2cn(nn2)CCCC1=O	-1.8	i
C[C@@H]1CN([C@@H](C)CO)S(=O)(=O)c2ccc(C#CCC3CCCC3)cc2O[C@H]1CN(C)C(=O)c1cnccn1	4.9	i
CO[C@@H]1CN(C)C(=O)c2ccc(NC(=O)c3cc(C)on3)cc2OC[C@@H](C)N(C(=O)C2CC2)C[C@H]1C	1.0	i
C/C=C/c1ccc([C@H]2[C@@H](CO)N(CC3CCOCC3)C23CN(C(=O)COC)C3)cc1	-8.4	+
Cc1ccc(S(=O)(=O)N(C)C[C@H]2Oc3c(NC(=O)Nc4c(C)noc4C)cccc3C(=O)N([C@@H](C)CO)C[C@H]2C)cc1	-2.2	i
Cc1ccccc1-c1cnc2c(c1)C(=O)N([C@@H](C)CO)C[C@H](C)[C@@H](CN(C)C(=O)c1cccnc1)O2	-1.4	i
C[C@H](NC(=O)C[C@H]1C[C@H]2c3cc(N(C)C)ccc3O[C@H]2[C@H](CO)O1)c1ccccc1	0.0	i
COc1ccc(-c2ccc3n(c2=O)C[C@H]2[C@H](CO)[C@@H](C(=O)NC4Cc5ccccc5C4)N[C@@H]32)cc1	-8.0	i
C[C@@H]1CN([C@@H](C)CO)C(=O)Cc2cc(NC(=O)C3CC3)ccc2O[C@@H]1CN(C)Cc1ccccc1	-2.4	i
Cc1noc(C)c1NC(=O)Nc1ccc2c(c1)C(=O)N(C)[C@H]1CC[C@@H](CC(=O)NCc3ccc(Cl)cc3)O[C@H]1CO2	1.4	i
C[C@@H]1CN([C@H](C)CO)C(=O)c2cc(NS(=O)(=O)c3ccc(Cl)cc3)ccc2O[C@@H](C)CCCCO[C@@H]1CN(C)C(=O)CCC(F)(F)F	-2.1	i
COc1cccc(NC(=O)Nc2ccc3c(c2)C(=O)N(C)C[C@H](OC)[C@@H](C)CN(CC2CC2)[C@@H](C)CO3)c1	-0.4	i
C[C@H]1CN([C@@H](C)CO)C(=O)Cc2cc(NS(=O)(=O)c3cccs3)ccc2O[C@@H]1CN(C)S(=O)(=O)c1ccc(Cl)cc1	2.4	i
O=C(C[C@H]1C=C[C@@H](NC(=O)c2ccccc2)[C@@H](CO)O1)Nc1ccc(-c2ccccc2)cc1	2.3	i
CC(C)NC(=O)N(C)C[C@@H]1OCCCC[C@@H](C)Oc2ccc(NS(=O)(=O)c3cccs3)cc2C(=O)N([C@@H](C)CO)C[C@H]1C	-2.7	i
Cc1ccc(S(=O)(=O)Nc2ccc3c(c2)C(=O)N([C@H](C)CO)C[C@@H](C)[C@@H](CN(C)CC2CCCCC2)OCCCC[C@@H](C)O3)cc1	24	i
O=C([C@H]1N[C@H]2c3ccc(-c4ccc(F)cc4)c(=O)n3C[C@H]2[C@@H]1CO)N1CCOCC1	-1.4	i
C[C@@H]1CCCCO[C@H](CN(C)Cc2ccccc2)[C@@H](C)CN([C@H](C)CO)C(=O)c2cc(NC(=O)Nc3ccc4c(c3)OCO4)ccc2O1	14	i

Among those listed so far, 3 have an aryl methoxy group:
Structure	MLL AF4-AF9 inh	FGF22 binding
COCC(=O)N1CCC2(CC1)CN(C(=O)c1ccccn1)[C@@H](CO)c1c2c2ccc(OC)cc2n1C	-0.3	i
COc1ccc(-c2ccc3n(c2=O)C[C@H]2[C@H](CO)[C@@H](C(=O)NC4Cc5ccccc5C4)N[C@@H]32)cc1	-8.0	i
COc1cccc(NC(=O)Nc2ccc3c(c2)C(=O)N(C)C[C@H](OC)[C@@H](C)CN(CC2CC2)[C@@H](C)CO3)c1	-0.4	i

Later entries.
Structure	MLL AF4-AF9 inh	FGF22 binding
COc1ccc2c3c([nH]c2c1)[C@H](CO)N(C(=O)Nc1ccccc1F)CC31CN(C(=O)C2CC2)C1	1.2	i
Cc1ccccc1S(=O)(=O)NCC[C@H]1CC[C@H](NC(=O)C2CC2)[C@@H](CO)O1	-1.3	i
CN1CCN(C(=O)[C@H]2[C@H](CO)[C@H]3Cn4c(ccc(C5=CCCCC5)c4=O)[C@@H]2N3S(C)(=O)=O)CC1	-0.9	i
O=C(C[C@@H]1C=C[C@H](NC(=O)Cc2ccccn2)[C@@H](CO)O1)NCCCN1CCOCC1	-3.7	i
C[C@H](CO)N1C[C@H](C)[C@@H](CN(C)CC2CC2)Oc2c(NS(C)(=O)=O)cccc2C1=O	-8.9&-2.8	i
COCCNC(=O)C[C@@H]1C[C@H]2c3cc(NC(=O)C4CCOCC4)ccc3O[C@H]2[C@@H](CO)O1	-1.4	i
COCC(=O)Nc1ccc2c(c1)C(=O)N(C)C[C@H](OC)[C@H](C)CN(C(=O)c1cnccn1)[C@H](C)CO2	3.2	i
C[C@H](CO)N1C[C@H](C)[C@@H](CN(C)Cc2ccc(C(=O)O)cc2)OCCCC[C@H](C)Oc2ccc(NS(C)(=O)=O)cc2C1=O	-1.4	i
C[C@@H]1CN([C@@H](C)CO)C(=O)c2cc(-c3cccc(C#N)c3)cnc2O[C@@H]1CN(C)Cc1cncnc1	-3.3	i
C[C@H]1CN([C@@H](C)CO)C(=O)c2cccc(NC(=O)c3nc4ccccc4s3)c2O[C@H]1CN(C)Cc1ccc2c(c1)OCO2	12	i
O=C(N[C@@H]1CC[C@@H](CC(=O)N2CCC(Cc3ccccc3)CC2)O[C@H]1CO)c1cnccn1	-2.2	i
O=C(C[C@@H]1C=C[C@@H](NC(=O)Nc2ccccc2F)[C@@H](CO)O1)NCc1ccc(F)cc1	-0.8	i
Cn1cnc(S(=O)(=O)N2CC[C@@H]3[C@H](CO)Nc4ccc(-c5ccc(F)cc5)cc4[C@@H]32)c1	0.3	i
CCCC(=O)Nc1ccc2c(c1)C(=O)N(C)C[C@@H](OC)[C@H](C)CN(Cc1cc(F)ccc1F)[C@H](C)CO2	0.7	i
COc1ccccc1S(=O)(=O)N[C@H]1CC[C@@H](CC(=O)N2CCOCC2)O[C@H]1CO	0.5	i
CC(C)C#Cc1cnc2c(c1)C(=O)N([C@@H](C)CO)C[C@H](C)[C@H](CN(C)C(=O)c1cccc(F)c1)O2	-3.2	i
O=C(C[C@H]1CC[C@@H]2[C@H](COC[C@H](O)CN2Cc2ccccc2F)O1)N1CCc2ccccc2C1	1.9	i
COc1ccc2c3c([nH]c2c1)[C@H](CO)N(C(=O)c1ccccc1)CC31CN(C(=O)c2cccc(F)c2)C1	-10.0	i
COc1ccc(S(=O)(=O)Nc2ccc3c(c2)[C@@H]2C[C@H](CC(=O)N(C)C)O[C@@H](CO)[C@@H]2O3)cc1	-22	i
COc1ccc(CN(C)C[C@@H]2Oc3ccc(NC(=O)CCC(F)(F)F)cc3CC(=O)N([C@@H](C)CO)C[C@@H]2C)cc1	-2.1	i
O=C(C[C@H]1CC[C@@H]2[C@H](COC[C@H](O)CN2Cc2ccccc2)O1)N[C@@H]1CCN(Cc2ccccc2)C1	4.3	i
OC[C@@H]1[C@H](c2ccc(-c3ccc(F)cc3)cc2)[C@@H]2CN(Cc3ccncc3)CCCCN12	14	i
C[C@@H]1CN([C@H](C)CO)S(=O)(=O)c2ccc(C3=CCCC3)cc2O[C@@H]1CN(C)C(=O)c1ccc(F)cc1	1.9	i
C[C@@H]1CN([C@H](C)CO)C(=O)c2cc(NC(=O)Nc3ccc4c(c3)OCO4)ccc2O[C@@H](C)CCCCO[C@H]1CN(C)Cc1ccccc1	-10	i
O=C(C[C@@H]1C=C[C@H](NS(=O)(=O)c2cccc(F)c2)[C@@H](CO)O1)NCc1ccc2c(c1)OCO2	-0.3	i
C[C@H]1CN([C@@H](C)CO)S(=O)(=O)c2ccc(C3=CCCCC3)cc2O[C@@H]1CN(C)Cc1cccc(C(=O)O)c1	0.4	i
CCNC(=O)C[C@H]1CC[C@@H](NC(=O)C2CCOCC2)[C@H](CO)O1	0.2	i
COc1ccc(-c2ccc3n(c2=O)C[C@H]2[C@H](CO)[C@@H](C(=O)Nc4ccccc4)[C@@H]3N2C)cc1	0.5	i
O=C1CCC(NC(=O)Cc2ccccc2)C(=O)N1 (configuration not stated)	-1.9	i
C/C=C/c1cnc2c(c1)C(=O)N([C@@H](C)CO)C[C@@H](C)[C@H](CN(C)C(=O)Cc1ccccc1)O2	-1.6	i
CCCNC(=O)C[C@@H]1CC[C@@H]2[C@H](COC[C@@H](O)CN2Cc2ccc(Cl)c(Cl)c2)O1	2.1	i
C[C@@H]1CN([C@@H](C)CO)C(=O)c2cc(-c3cccc(F)c3)cnc2O[C@@H]1CN(C)Cc1ccccc1	-1.4	i
O=C(C[C@@H]1C=C[C@@H](NC(=O)C2CC2)[C@H](CO)O1)NCC1CC1	-2.1	i
Cn1cnc(S(=O)(=O)N2CCCCN3[C@@H](CO)[C@H](c4ccc(-c5cccc(F)c5)cc4)[C@@H]3C2)c1	2.6	i
COc1ccc(NC(=O)N(C)C[C@H]2Oc3c(NS(=O)(=O)c4c(C)noc4C)cccc3C(=O)N([C@@H](C)CO)C[C@H]2C)cc1	-2.0	i
Cc1ccc(S(=O)(=O)N[C@H]2C=C[C@@H](CC(=O)O)O[C@H]2CO)cc1	-0.7	i
C[C@H](CO)N1C[C@H](C)[C@H](CN(C)Cc2ccc(Cl)c(Cl)c2)Oc2ccc(NC(=O)Cn3cnnn3)cc2C1=O	3.9	i
N#C[C@@H]1[C@@H](c2ccccc2-c2ccccc2F)[C@H](CO)N1C(=O)Cc1ccccc1	-1.6	i
C[C@@H]1CN([C@H](C)CO)C(=O)c2cc(-c3ccccc3)cnc2O[C@H]1CN(C)C(=O)c1ccccn1	-1.7	i
Cc1ccc(S(=O)(=O)N[C@@H]2CC[C@H](CCNS(=O)(=O)Cc3ccccc3)O[C@@H]2CO)cc1	-1.3	i
Cn1cnc(S(=O)(=O)N2CCCCN3[C@H](CO)[C@H](c4ccc(-c5ccccc5)cc4)[C@@H]3C2)c1	-3.3	i
CCCNC(=O)[C@H]1[C@H](CO)[C@H]2Cn3c(ccc(C4=CCCCC4)c3=O)[C@H]2N1Cc1ccccc1F	7.1	i
CC(=O)N[C@H]1C=C[C@H](CC(=O)NCC2CCCCC2)O[C@H]1CO	-1.0	i
COC(=O)C1=C(C)N(Cc2ccccc2C(F)(F)F)C(=NCc2ccccc2C(F)(F)F)NC1c1ccc(Cl)cc1 (configuration not stated)	-2.2	i
CO[C@@H]1CN(C)C(=O)c2cc(NS(C)(=O)=O)ccc2OC[C@H](C)N(Cc2cncnc2)C[C@@H]1C	-1.4	i
C[C@@H]1CN([C@@H](C)CO)C(=O)c2cc(NC(=O)CCCN(C)C)ccc2O[C@@H](C)CCCCO[C@H]1CN(C)Cc1ccncc1	-4.6	i
C[C@H]1CN([C@@H](C)CO)S(=O)(=O)c2ccc(C#CC3CCCC3)cc2O[C@H]1CN(C)CC1CC1	15	i
CN(C)C(=O)c1cc2c(c(-c3cccc(-c4ccccc4)c3)n1)[C@H](CCO)N([S@@](=O)C(C)(C)C)C2	3.2	i
C[C@@H]1CN([C@@H](C)CO)C(=O)c2ccccc2-c2ccccc2CO[C@@H]1CN(C)C(=O)Oc1ccccc1	-3.8	i

An excerpt of these results, with values under each structure:
The line under a structure holds: MLL AF4-AF9 inh	FGF22 binding
COc1cccc(NC(=O)Nc2ccc3c(c2)C(=O)N(C)C[C@H](OC)[C@@H](C)CN(CC2CC2)[C@@H](C)CO3)c1
 : -0.4	i
C[C@H]1CN([C@@H](C)CO)C(=O)Cc2cc(NS(=O)(=O)c3cccs3)ccc2O[C@@H]1CN(C)S(=O)(=O)c1ccc(Cl)cc1
 : 2.4	i
O=C(C[C@H]1C=C[C@@H](NC(=O)c2ccccc2)[C@@H](CO)O1)Nc1ccc(-c2ccccc2)cc1
 : 2.3	i
